From PubChem BioAssay
KCNQ2 pot = KCNQ2 (rat) channel potentiation | B-score at 10 µM | AID 2239 | 0.54% of 310,000 active | O88943 | CHO-K1 KCNQ2, FluxOR thallium flux fluorescence; hits give high values;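 active means fluorescence ratio B-score at least 3 SD of library B-scores, with initial fluorescence B-score within 3 SD, cut at about 5.3 in these data; same plate scores as AID 2156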;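 further: B-score of peak minus minimum over baseline fluorescence ratio after K+ and Tl+ stimulus; positive B-score means potentiation of KCNQ2 with more thallium influx and brighter signal; only the inactives scoring about 0 or higher are listed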
Target sequence (O88943 whole entry, looked up): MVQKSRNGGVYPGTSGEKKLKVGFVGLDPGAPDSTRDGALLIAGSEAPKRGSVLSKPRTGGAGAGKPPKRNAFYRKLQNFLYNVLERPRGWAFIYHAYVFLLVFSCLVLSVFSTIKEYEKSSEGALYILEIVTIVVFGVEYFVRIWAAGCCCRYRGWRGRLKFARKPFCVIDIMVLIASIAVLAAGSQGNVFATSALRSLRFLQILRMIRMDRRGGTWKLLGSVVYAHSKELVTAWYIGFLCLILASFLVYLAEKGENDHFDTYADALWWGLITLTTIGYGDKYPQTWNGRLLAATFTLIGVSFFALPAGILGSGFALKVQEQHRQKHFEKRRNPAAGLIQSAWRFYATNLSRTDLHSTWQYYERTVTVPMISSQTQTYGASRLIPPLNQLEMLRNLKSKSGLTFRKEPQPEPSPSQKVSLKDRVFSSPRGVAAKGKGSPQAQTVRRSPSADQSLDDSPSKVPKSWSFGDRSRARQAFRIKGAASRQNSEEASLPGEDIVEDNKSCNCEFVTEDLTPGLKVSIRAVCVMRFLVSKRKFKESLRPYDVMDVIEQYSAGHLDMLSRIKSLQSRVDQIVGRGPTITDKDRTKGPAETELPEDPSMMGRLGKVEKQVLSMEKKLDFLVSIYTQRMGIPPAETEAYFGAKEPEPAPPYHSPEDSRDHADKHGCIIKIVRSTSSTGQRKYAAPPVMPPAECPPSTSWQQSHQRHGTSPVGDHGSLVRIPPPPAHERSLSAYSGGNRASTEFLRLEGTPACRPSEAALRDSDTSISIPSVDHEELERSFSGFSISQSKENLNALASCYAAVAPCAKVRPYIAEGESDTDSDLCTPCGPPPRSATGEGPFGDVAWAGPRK
KCNQ2 pot baseline = second read-out of KCNQ2 pot, no call of its own (marks repeat the call); B-score; compound at 10 µM; measured here: initial fluorescence intensity artifact check;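 brightness before thallium and not channel activity; 0 = typical well and far values either way flag optical interference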
Numbers without * were called inactive. An excerpt (hit frequency here may not be typical).

SMILES	KCNQ2 pot	KCNQ2 pot baseline
CCOc1ccc(CCNC(=O)c2cccc(S(=O)(=O)N3CCOCC3)c2)cc1OCC	0.75	-0.38
O=C(CSC1=NCCS1)NC1CCCC1	1.44	2.66
CCOc1ccc(-c2nc(CSc3nncs3)cs2)cc1OC	0.06	1.68
O=C(CC(=O)c1ccccc1[N+](=O)[O-])c1ccccc1	0.88	-0.39
CCc1ccccc1OCC(=O)Nc1ccc(S(N)(=O)=O)cc1	0.94	0.11
CC(C)C(=O)Nc1ccc(N2CCCC2)cc1	0.1	-0.11
CCCCCSc1nnc(-c2ccccc2NC(C)=O)c(=O)[nH]1	1.78	0.45
CC(C)c1onc(C(=O)N2CCCCCC2)c1[N+](=O)[O-]	1.36	-1.98
Cc1cc(-n2c(=S)sc3c(=O)n(-c4ccc(F)cc4)c(SCC(=O)O)nc32)ccc1Cl	0.69	0.78
COc1cc(S(=O)(=O)n2nc(C)cc2C)c(OC)cc1Cl	0.19	1.27
C=CCNC1=C(Cl)C(=O)N(c2ccccc2Cl)C1=O	0.25	1.6
O=C(NNC(=O)c1cc2ccccc2cc1O)c1cccs1	1.25	-0.05
CCC1(C)CC(CC(=O)O)(c2ccccc2OC)CCO1 (centres undefined)	0.34	-1.09
COc1cc(C2/C(=C(\O)c3ccc4c(c3)OCCO4)C(=O)C(=O)N2Cc2ccco2)cc(OC)c1OC (centres undefined)	1.08	-0.97
Cc1nn(C)cc1/C=N\NC(=O)Cc1ccc([N+](=O)[O-])cc1	1.51	-1.23
Cc1cc(C)cc(NC(=O)CSc2nc3c(c(=O)n2C)SC(C)C3)c1 (centres undefined)	0.02	-0.51
Cc1ccccc1-c1nc2ccccc2c(=O)n1C1CCS(=O)(=O)C1 (centres undefined)	0.8	0.46
Brc1ccc(OCCCOc2cccc3cccnc23)cc1	0.9	-0.36
COc1ccc(CN2C(=O)c3ccccc3C2C(=O)NCC2CCCO2)c(OC)c1 (centres undefined)	0.95	0.25
Cc1c(C(=O)Nc2ccc3c(c2)OCCO3)sc2ncnc(N3CCCCC3C)c12 (centres undefined)	0.43	-1.04
CC(C)(C)n1nnnc1C(c1ccccc1F)N1CCN(C2CCCC2)CC1 (centres undefined)	0.13	-0.31
Cc1ccc(S(=O)(=O)Nc2cccnc2)cc1	0.68	1.58
S=C(Nc1ccc(Oc2ccc(NC(=S)NC3CCCCC3)cc2)cc1)NC1CCCCC1	1.26	0.02
C=CCc1ccccc1OCC(O)CN1CCOCC1 (centres undefined)	0.42	0.02
C=CCOc1ccc2c(CC)cc(=O)oc2c1C	0.94	-0.1

Taken from above:
Under KCNQ2 pot, `O=C(CSC1=NCCS1)NC1CCCC1` has 1.44
Under KCNQ2 pot baseline, `CCOc1ccc(-c2nc(CSc3nncs3)cs2)cc1OC` has 1.68
Under KCNQ2 pot baseline, `Cc1ccc(S(=O)(=O)Nc2cccnc2)cc1` has 1.58

(cont.)
SMILES	KCNQ2 pot	KCNQ2 pot baseline
Cc1ccc(C2/C(=C(/O)c3cnn(-c4ccccc4)c3C)C(=O)C(=O)N2CCN2CCOCC2)o1 (centres undefined)	0.65	0.17
Cc1cc(S(=O)(=O)NCC(c2ccc3c(c2)OCO3)N2CCOCC2)ccc1F (centres undefined)	0.66	-0.47
C/C(=N\NC(=O)Cn1ccc(C(F)(F)F)n1)c1ccc2c(c1)OCO2	1.16	0.02
CCC(=O)N1CCN(c2ccc(NC(=O)c3ccc(N4CCOCC4)c([N+](=O)[O-])c3)cc2)CC1	0.53	0.4
CCNC(=S)N(CCN(CC)CC)Cc1cc2cc3c(cc2[nH]c1=O)OCCO3	0.06	-0.34
CN(CCc1ccccn1)C(=S)Nc1ccc(Cl)c(Cl)c1	0.64	-0.12
O=C(CN1C(=O)/C(=C/c2ccco2)SC1=S)NC1CCS(=O)(=O)C1 (centres undefined)	2.25	0.26
CC(C)C(C(=O)Nc1sc2c(c1C#N)CCCCC2)N1C(=O)c2ccccc2C1=O (centres undefined)	0.05	-3.67
c1csc(Cc2nc(-c3ccc(-n4cccc4)cc3)no2)c1	0.07	-0.46
c1ccc(Cc2nn3c(COc4ccccc4)nnc3s2)cc1	0.47	-1.02
Cc1ccc(C2/C(=C(\O)c3c(C)nc4ccccn34)C(=O)C(=O)N2CCN(C)C)o1 (centres undefined)	1.22	1.75
CCC(=O)NC(=S)Nc1ccc(NC(=O)c2cc3ccccc3o2)c(OC)c1	0.67	-0.14
CCOC(=O)C1(Cc2cccc(OC)c2)CCN(Cc2cccc(OC)c2O)CC1	1.22	-0.14
C/C(=N/NC(=O)c1ccncc1)c1ccccc1	0.94	-1.2
C=CCOc1ccc(C(=O)O)cc1Cl	0.94	-0.89
O=[N+]([O-])c1ccc(O)c(/C=N/n2cnc3ccccc32)c1	0.02	-0.47
Cc1cc(NC(=O)CSc2ncnc3c2cnn3-c2ccccc2)no1	0.45	0.96
COC(=O)CN1C(=S)N(c2ccc(F)cc2)C(=O)C1CC(=O)Nc1ccccc1 (centres undefined)	0.3	3.55
O=c1[nH]nc(SCc2nc3ccccc3s2)n1C1CC1	0.14	-0.41
Cc1cccc(C#N)c1NC1=CC(=O)CC(C)(C)C1	0.47	-0.95
Cc1noc(C)c1COc1cccc(C(=O)Nc2ccc(C#N)cc2)c1	1.16	1.1
CCCCN(C(=O)c1ccc2c(c1)OCCO2)c1c(N)n(CC(C)C)c(=O)[nH]c1=O	1.09	-0.16
CCC1=NN(C(=O)c2ccccc2O)C(O)(c2ccccc2)C1 (centres undefined)	10.5*	-1.94*
Cc1ccc(NC(=O)c2cc(S(=O)(=O)N3CCCC3)c[nH]2)c(C)c1	0.64	0.27
CCOc1ccccc1Oc1coc2cc(OCC(=O)O)ccc2c1=O	1.15	0.01
The listing continues:
SMILES	KCNQ2 pot	KCNQ2 pot baseline
O=C1N(CN2CCC3(CC2)OCCO3)c2ccccc2C12OCCCO2	0.52	-0.11
C=CCOc1c(Br)cc(CNc2ccc(NC(=O)C(C)C)cc2)cc1OCC	8.32*	-0.45*
CCCCCC(=O)Nc1sc(C)c(C)c1C#N	1.35	-0.96
COc1cc(OC)c(/C=N/NC(N)=S)cc1Br	1.93	-0.06
Cn1c(-c2sc3cc(C(F)(F)F)cnc3c2-c2ccccn2)n[nH]c1=S	0.28	1.02
COc1cc(N/C(N)=N/c2nc(C)cc(C)n2)c(OC)cc1Cl	0.2	-0.03
COc1ccc(Cl)cc1N(CC(=O)Nc1ccccc1C(=O)N1CCCC1)S(C)(=O)=O	0.19	0.63
CC(=O)Nc1ccc(NC(=O)CSc2nnnn2-c2ccc3c(c2)OCCO3)cc1	0.48	0.48
CCSc1nnc(NC(=O)CSc2nccn2-c2cc(C)cc(C)c2)s1	0.3	-2.02
Cc1cccc(N2CCC(NCc3c(C(=O)N4CCCCC4)nc4c(C)cccn34)CC2)c1	0.57	-0.12
COc1ccc(NC(=O)CN(c2cccc(F)c2)S(C)(=O)=O)cc1OC	1.18	-3.13
CN(CC(=O)Nc1ccc(S(=O)(=O)N2CCCC2)cc1)Cc1c(F)cccc1Cl	2.22	-0.05
O=C(O)c1ccc(SCc2ccccc2)nc1	0.15	0.48
Cn1nnnc1N=N/C(=N/Nc1ccccc1)c1ccccc1	0.47	1.06
CCC(Oc1cc(Cl)ccc1Cl)C(=O)N1CCCN(C)CC1 (centres undefined)	1.1	0.4
COc1ccc(C(=O)Nc2ccc3ccccc3n2)cc1OC	0.68	0.07
NC(=O)C1(N2CCCCC2)CCN(c2nc(-c3ccccc3)cs2)CC1	0.04	0.4
NS(=O)(=O)c1ccc(N/N=C/c2ccccn2)c([N+](=O)[O-])c1	0.13	0.45
CCC(=O)Nc1ccc(N2CCC(C)CC2)cc1	1.36	0.57
O=C(CCCC(=O)N(CC(=O)NC1CCCCC1)Cc1ccco1)Nc1ccccn1	0.7	-0.09
CN(Cc1ccccc1NS(=O)(=O)c1ccc(Cl)cc1)C1CCCCC1	0.56	-0.57
Cc1cccc(NC(=O)c2ccc(OCC3CCCO3)cc2)c1C (centres undefined)	0.95	-0.03
C/C(N)=C(/C#N)C(=O)COC(=O)c1ccc(NC(N)=O)cc1	0.32	0.04
O=C(NC1CCCCC1)C(c1ccc(Cl)cc1)N1CCC2(CC1)OCCO2 (centres undefined)	1.39	-0.19
COc1cccc2sc(Nc3nc(-c4ccccn4)cs3)nc12	21.1*	0.01*
Continuation.
SMILES	KCNQ2 pot	KCNQ2 pot baseline
CCOC(=O)c1sc(C)c2c1NC1(CCCCCC1)NC2=O	0.58	-0.45
O=C(NNC(=O)c1sccc1-n1cccc1)c1ccc(Cl)cc1	0.21	0.19
CCC(=O)NCCNC(=O)c1c(SC)nsc1SC	1.54	-0.23
O=C(OCC(=O)N1CCCc2ccccc21)c1ccc(Cl)nc1	0.07	-1.14
Cc1ccc(NC(=O)CCC(=O)NNC(=O)c2ccccc2)c(C)c1	0.62	1.38
COc1ccc(NC(=O)CCCN2C(=O)C3CC=CCC3C2=O)cc1 (centres undefined)	0.66	0.02
O=C(/C=C/c1ccccc1)NCCSCc1ccc(Cl)cc1	0.02	0.83
O=C(/C=C/c1ccccc1)NC(NC(=S)Nc1ccc(Cl)cc1Cl)C(Cl)(Cl)Cl (centres undefined)	0.49	-0.66
Cc1ccc(-c2nnn(CC(=O)O)n2)cc1	0.02	1.77
O=c1oc(-c2ccccc2)nc2sc3c(c12)CCC3	1.35	-0.01
Cc1ccc(NC(=O)Nc2cnccn2)cc1C	0.09	0.16
CCOC(=O)c1c(-c2cccs2)csc1NC(=O)c1ccco1	0.31	-0.01
CCc1nnc(NC(=O)CSc2nnc(C3CCCCC3)n2-c2cccc(Cl)c2)s1	0.62	-0.69
CCOCC(=O)Nc1c(C(=O)Nc2ccc3c(c2)OCO3)oc2ccccc12	0.71	0.75
COc1ccc(CNC(=S)Nc2ccccc2C)cc1	0.87	0.32
N#CCC(N)=C(C#N)C#N	0.94	-0.12
C/C(=N\NC(=S)NCCc1ccccc1)c1ccc(C)cc1	0.21	-0.01
Cc1nc(NCC2CCCO2)c2nnn(Cc3ccccc3Cl)c2n1 (centres undefined)	0.27	0.82
Cc1cc(C)c(O)c(-c2cc(C(=O)Nc3cccnc3)[nH]n2)c1	1.22	-1.63
Cc1cccc(OCCSc2nc3ccccc3n2CC(=O)O)c1	1.46	-0.73
Cc1ccc(Cc2cnc(NC(=O)CN3CCOCC3)s2)cc1Cl	0.22	-1.01
Cc1nc(CS(=O)c2ccc(Cl)cc2)cc(NCc2ccc(Cl)cc2Cl)n1 (centres undefined)	1.37	-0.4
O=C(c1cccnc1)N1CCN(S(=O)(=O)c2cccs2)CC1	1.27	-0.52
CC(OC(=O)c1ccco1)C(=O)Nc1ccc(Cl)cn1 (centres undefined)	1.35	-1.11
CC(C)(C)C(=O)NNc1nc(-c2ccccc2)c2cc(Br)ccc2n1	3.72	-0.45

Four of the compounds above, as labelled records:
C/C(=N\NC(=O)Cn1ccc(C(F)(F)F)n1)c1ccc2c(c1)OCO2
  KCNQ2 pot: 1.16
  KCNQ2 pot baseline: 0.02

CCC(=O)N1CCN(c2ccc(NC(=O)c3ccc(N4CCOCC4)c([N+](=O)[O-])c3)cc2)CC1
  KCNQ2 pot: 0.53
  KCNQ2 pot baseline: 0.4

CCNC(=S)N(CCN(CC)CC)Cc1cc2cc3c(cc2[nH]c1=O)OCCO3
  KCNQ2 pot: 0.06
  KCNQ2 pot baseline: -0.34

CN(CCc1ccccn1)C(=S)Nc1ccc(Cl)c(Cl)c1
  KCNQ2 pot: 0.64
  KCNQ2 pot baseline: -0.12

An excerpt of these results, with each value named.
CCOCC(=O)Nc1c(C(=O)Nc2ccc3c(c2)OCO3)oc2ccccc12
  KCNQ2 pot = 0.71
  KCNQ2 pot baseline = 0.75

COc1ccc(CNC(=S)Nc2ccccc2C)cc1
  KCNQ2 pot = 0.87
  KCNQ2 pot baseline = 0.32

Further records
SMILES	KCNQ2 pot	KCNQ2 pot baseline
CCOc1cc(NC2CS(=O)(=O)CC2O)c(OCC)cc1NC(=O)c1ccccc1 (centres undefined)	0.85	-0.48
CCOC(=O)Nc1cccc(OCC(=O)Nc2ccccc2OCC)c1	0.59	-0.9
O=C(Nc1cccc(NC(=O)c2ccco2)c1)c1ccccc1	0.34	-1.7
Cn1c(=O)c2c(nc(Br)n2CC(=O)C23CC4CC(CC(C4)C2)C3)n(C)c1=O	0.54	-0.37
COc1ccccc1CC(=O)O/N=C(\N)c1ccccn1	0.67	0.7
Cc1ccc(S(=O)(=O)C2(C(=O)Nc3cccnc3)CC2)cc1	0.73	0.33
CCCOc1ccc(N2C(=O)CC(N3CCN(c4ccccc4F)CC3)C2=O)cc1 (centres undefined)	1.06	0.73
COc1cccc(-c2cc3c(=O)n(-c4ccccc4)c(=S)[nH]c3s2)c1	0.02	0.49
N#Cc1c(NC(=O)CSc2ccccn2)oc(-c2ccccc2)c1-c1ccccc1	0.05	-1.32
Cc1ccc(C(=O)CC(=O)c2ccc(C(C)(C)C)cc2)cc1	0.15	0.01
COc1ccc(S(=O)(=O)N2CCC(C(=O)N[C@@H](C)C(=O)NCc3ccc(F)cc3)CC2)cc1	1.08	0.49
CCOc1ccccc1CNC(=O)c1ccc(NC(=O)C2=C(C)OCCS2)cc1	1.33	1.81
Cc1cc(=O)n(CC(=O)NCCN2CCOCC2)c2c1c(C)nn2-c1ccccc1	1.39	1.42
CCOc1ccc(CCNC(=O)CS(=O)(=O)Cc2nc(-c3cccc(OC)c3)oc2C)cc1	0.18	0.52
COc1ccc(OC)c(-n2cnnn2)c1	0.53	1
O=C(NCCS(=O)(=O)NCCCc1ccccc1)c1ccccc1	1.61	0.91
CC(C)(C)CC(C)(C)NC1=CC(=O)OC12CCCCC2	1.44	-0.31
Cc1ccc(C(=O)N/C(=C/c2ccc(C(C)C)cc2)C(=O)NCCCN2CCOCC2)cc1	0.23	1.97
O=C(N/N=C/c1c[nH]c2ccc(Br)cc12)c1ccccn1	2.47	-0.82
S=c1[nH]c(-c2cccs2)cn1-c1ccccc1	3.39	-0.05
COC(=O)C1C(=O)c2c([nH]c(C(=O)OC3CCCC3)c2C)CC1C (centres undefined)	1.33	-0.1
O=C(c1ccc(C(=O)N2CCCc3ccccc32)nc1)N1CCCc2ccccc21	0.47	0.3
